Screens deposited in PubChem BioAssay by National Center for Advancing Translational Sciences (NCATS).
MARV entry inh = blocks Marburg virus binding to or entry into cells. Marburg virus pseudotyped entry inhibition, cell reporter; control for the full effect not named in the record; about a third of the inactives were read at about 46 µM. Potency, µM (series often up to 37.8 µM), inactives show top-dose activity change, negative = inhibition, most hits filed as inhibitors. 300,000 compounds, 1.8% hits. AID 540276; active = well fitted inhibition curve with a large enough effect; inconclusive = small, poorly fitted or top-dose-only effect, or effect the other way; inactive = flat fitted curve, though single readings scatter; tested in HEK293 cells; about a fifth of its hits are not listed in these tables; also: % is scaled to controls: 0 for no effect and ±100 for the full control effect; luciferase read-out
Cruzain noTriton = inhibitors of Trypanosoma cruzi cruzain without detergent | Potency, µM, without a hit: max response, negative = inhibition, hits mostly inhibitors | P25779 | AID 1476 | 200,000 compounds, 2.3% hits | purified cruzain, Z-FR-AMC fluorescence, no detergent; active = well fitted curve in the direction sought with a large enough effect; inconclusive = small, poorly fitted or top-dose-only effect, or another doubt; inactive = no such curve, though single readings can be large; an effect the other way counts as inactive or inconclusive;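 also: plate controls were enzyme without inhibitor for no effect and buffer without enzyme for full effect; nearly all actives have a fitted effect of over 40% in size; top concentration of the series not given in the record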
Target sequence (P25779 123-467 limits assumed): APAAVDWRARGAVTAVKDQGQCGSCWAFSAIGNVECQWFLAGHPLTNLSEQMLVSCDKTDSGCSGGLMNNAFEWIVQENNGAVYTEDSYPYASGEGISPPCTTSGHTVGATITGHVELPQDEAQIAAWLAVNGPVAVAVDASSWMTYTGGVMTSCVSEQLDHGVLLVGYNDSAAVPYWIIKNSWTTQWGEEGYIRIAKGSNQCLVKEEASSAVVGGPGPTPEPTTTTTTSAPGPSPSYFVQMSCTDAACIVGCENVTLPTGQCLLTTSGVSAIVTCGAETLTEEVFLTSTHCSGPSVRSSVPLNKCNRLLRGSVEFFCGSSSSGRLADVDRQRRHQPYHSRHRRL
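Detergent-free condition (0.00005% Triton X-100) in acetate buffer pH 5.5 with DTT. 1.5 nM enzyme and compound were pre-mixed 15 min, then 2 uM Z-FR-AMC substrate added; reaction progress from fluorescence change between first and third reads (60 s).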
Lassa entry inh = inhibitors of Lassa virus binding or cell entry; Lassa virus pseudotype entry inhibition, cell reporter; control for the full effect not named in the record; 300,000 compounds, 1.2% hits; Potency, µM (series often up to 37.9 µM), for inactives: top-dose activity change, negative = inhibition, usual class: inhibitors; AID 540256; active means well fitted inhibition curve with a large enough effect; inconclusive means small, poorly fitted or top-dose-only effect, or effect the other way; inactive means flat fitted curve, though single readings scatter; tested in HEK293 cells; also: % is scaled to controls: 0 for no effect and ±100 for the full control effect; nearly all actives have a fitted effect of over 50% in size; luciferase read-out
RE007 growth inh = less growth of the S. pombe RE007 Vpr strain | S. pombe RE007 Vpr strain, BacTiter-Glo ATP luminescence, 24 h; control for the full effect not named in the record | Potency, µM (highest dose often 92.2 µM), for inactives: at the highest dose activity change, negative = less growth | 360,000 compounds, 0.21% hits; active = well fitted falling curve with a large enough effect; inconclusive = small, poorly fitted or top-dose-only effect; inactive = no such curve, though single readings can be large or run the other way;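 also: % is scaled to controls: 0 for no effect and ±100 for the full control effect; nearly all actives have a fitted effect of over 50% in size; the assay follows cell death caused by Vpr and the record does not say whether a fall means rescue or toxicity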
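Fission yeast strain RE007, carrying one chromosomally integrated HIV-1 vpr copy, was seeded at OD 0.01 in PMG+AL medium with 23 nL pinned compound. After 24 h at 30 °C and 99% humidity, viability was read by BacTiter-Glo luminescence.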
Cruzain inh Det = cruzain (T. cruzi) inhibition with detergent; P25779; AID 1478; purified cruzain, Z-FR-AMC fluorescence, 0.01% Triton; Potency, µM, for inactives: max response, negative = inhibition, usual class: inhibitors; 200,000 compounds, 0.43% hits; active = well fitted curve in the direction sought with a large enough effect; inconclusive = small, poorly fitted or top-dose-only effect, or another doubt; inactive = no such curve, though single readings can be large; an effect the other way counts as inactive or inconclusive;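 also: plate controls were neutral wells for no effect and buffer without enzyme for full effect; nearly all actives have a fitted effect of over 40% in size; top concentration of the series not given in the record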
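Read-out: AMC fluorescence (360 nm excitation, 450 nm emission), four reads over 2 min, first-to-third difference used. Conditions: cruzain 1.5 nM, Z-FR-AMC 2 uM, pH 5.5 acetate, 5 mM DTT, 0.01% Triton X-100.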
NS1 inh = influenza NS1 inhibition | Potency, µM (top dose mostly 46.1 µM), for the others: at the highest dose activity, positive = more growth | S. cerevisiae slowed by influenza A NS1, growth recovery by OD600 | 270,000 compounds, 0.4% hits; also: actives are rising curves; nearly all actives have a fitted effect of over 50% in size
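Read-out: OD600 growth recovery of NS1-expressing budding yeast. Cells grown overnight at 30C in -URA glucose medium, washed, resuspended and diluted 1:100 in 2% galactose assay medium, pH 6.0. Same strain lacking NS1 served as positive control.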
StopGo reporter = lowers the luciferase signal of an FMDV 2A StopGo reporter; human cells with a luciferase reporter of 2A StopGo recoding; control for the full effect not named in the record; Potency, µM (series often up to 57.9 µM), without a hit: top-dose signal change, negative = less light; 410,000 compounds, 1.2% hits; AID 1159524; active = well fitted falling curve with a large enough effect; inconclusive = small, poorly fitted or top-dose-only effect; inactive = no such curve, though single readings can be large or run the other way; tested in HEK293T cells; also: % is scaled to controls: 0 for no effect and ±100 for the full control effect; nearly all actives have a fitted effect of over 45% in size; luciferase light after 4 h
SARS PLpro yeast = SARS-CoV PLP inhibition in yeast | S. cerevisiae expressing SARS-CoV PLpro, growth rescue; control for the full effect not named in the record | 330,000 compounds, 0.19% hits | Potency, µM (top dose mostly 32.9 µM), for inactives: top-dose activity, positive = growth rescue; also: 0% is about no effect; nearly all actives have a fitted effect of over 55% in size; growth read by luminescence after 48 h
Starred values were filed as active, the others as inactive; ? = inconclusive; / = not tested or not shown; & = joins results of further samples; [ ] = remark or other dose. Unless noted, calls follow the shape of the dose curve; as a rule, active means well fitted rising curve with a large enough effect; inconclusive means small, poorly fitted or top-dose-only effect; inactive means no such curve, though single readings can be large or run the other way. Potency is read from the fitted curve at half-maximal effect.

SMILES	MARV entry inh	Cruzain noTriton	Lassa entry inh	RE007 growth inh	Cruzain inh Det	NS1 inh	StopGo reporter	SARS PLpro yeast
CCOC(=O)C1(CC2CCCCO2)CCN(Cc2c(C)cc(C)cc2-n2cccn2)CC1 (configuration not stated)	?	/	-12%[46.1 µM]	-6%	/	-1%	-21%	-1%
Cc1ccc2[nH]c3c(=O)n(CC(=O)N4CC(C)CC(C)C4)ncc3c2c1 (configuration not stated)	/	/	/	17%	/	9%	-28%	2%
COc1cc(C(=O)NCC(=O)OCC(=O)Nc2ncc(Cl)cc2Cl)cc(OC)c1OC	-7%[46.1 µM]	/	/	3%	/	/	1%	2%
Cc1cc(C)n2c(SCC(=O)NC3CCCC(C)C3C)nnc2n1 (configuration not stated)	?	/	20%[46.1 µM]	-3%	/	/	-9%	-3%
CCOC(=O)c1c(NC(=O)c2ccccc2C(=O)O)sc2c1CCCC2	-12%	/	-26%	4%	/	11%	-14%	-5%
C=C(C)c1cccc(C(C)(C)NC(=O)Nn2cnnc2)c1	-8%	-2%	?	7%	1.3%	0%	/	-7%
Cc1nc2ccccc2nc1NS(=O)(=O)c1ccc(N)cc1	3%[46.1 µM]	/	-15%[46.1 µM]	-2%	/	12%	20%	1%
CCN(CC)/C(=N\S(=O)(=O)c1ccc(F)cc1)c1ccccc1	-8%	/	?	-8%	/	1%	3%	0%
Cc1cccc(NP(=O)(Oc2ccccc2)Oc2ccccc2)c1C	?	/	?	1%	/	2%	15%	-5%
CC(C)OC(=O)c1cccc(C(=O)Oc2ccc(Br)cc2)n1	2%	-5%	-11%	7%	-3.4%	-6%	-15%	-4%
C#CCN(C(=O)CC1C(=O)NCCN1C/C=C/c1ccccc1)C1CCCCC1 (configuration not stated)	?	/	8%	-4%	/	-4%	7%	0%
CN1CCN(C(=O)c2ccccc2N(Cc2ccccc2)S(=O)(=O)c2ccccc2)CC1	?	-7%	-21%	1%	2.3%	4%	-23%	0%
Cc1ccc(NS(=O)(=O)c2cc(C(N)=O)ccc2C)cc1	14%	5%	?	-7%	2.6%	9%	42%[activator]	7%
COCCNC(=O)c1ccc2c(c1)nc(C)n2-c1cccc(Cl)c1	/	/	/	0%	/	-5%	-9%	-1%
COc1cc(-c2nc(C(=O)NCC3CCCO3)cc3c2[nH]c2ccccc23)cc(OC)c1OC (configuration not stated)	/	/	/	0%	/	-11%	?	16%
COC(=O)c1c(C)[nH]c(C)c1C(=O)c1ccccc1Cc1ccccc1	?	?	?	-9%[18.4 µM]	-7.1%&-9.5%	-45%	0%	/
CCOC(=O)C1=NOC(CNC(=O)c2ccccc2Cl)C1 (configuration not stated)	?	/	12%[46.1 µM]	-20%	/	/	-6%	0%
O=C(C(Sc1ccccc1)c1ccccc1)N1CCN(c2ccccc2)CC1 (configuration not stated)	?	14%	?	0%	-4.9%	-3%	?	-21%
CCOc1ccc(C(=O)C(C)OC(=O)c2nc(Cl)ccc2Cl)cc1 (configuration not stated)	24%	/	-10%	8%	/	/	-10%	1%
Cc1[nH]nc(N=Cc2c(O)n(C)c(=O)n(C)c2=O)c1-c1ccccc1	0%	?	-6%	-6%	-1.8%	5%	7%	4%
CCOC(=O)C1(Cc2cccc(OC)c2)CCN(Cc2ccccc2OC)CC1	?	/	-26%	1%	/	-3%	?	0%
CCc1ccc(NC(=O)CSc2nnc(Cn3c(=O)sc4ccccc43)n2C)cc1	/	2%	/	7%	-4.0%	-24%	0%	-1%
COc1ccc(OC)c(CCNC(=O)c2cc3c(=O)oc4ccc(C)cc4c3s2)c1	-28%[46.1 µM]	3%	10%[46.1 µM]	/	0.5%	/	-13%	/
COc1ccc2oc(-c3ccc(C)c(NC(=O)c4ccc(-c5ccccc5[N+](=O)[O-])o4)c3)nc2c1	2%[46.1 µM]	10%	-2%[46.1 µM]	/	-1.7%	/	5%	/
CCOc1ccccc1/C=C/C(=O)c1ccc(Cl)cc1	?	-5%	-6%	-29%	-9.4%	-11%	-10%	-20%
CSCC[C@H](NC(=O)[C@@H]1CSC2c3ccccc3C(=O)N21)C(=O)NCc1ccco1 (some centres not stated)	/	/	/	0%	/	8%	1%	-3%
CC(=O)OCC1CC(COC(C)=O)C(COC(C)=O)CC1COC(C)=O (configuration not stated)	1%	/	8%[46.1 µM]	1%	/	/	-3%	/
Cc1cc2c3c(ccc(C)c3n1)N=CN2c1ccccc1	8%[46.1 µM]	-15%	0%	10%	-0.5%	0%	-4%	2%
COCCCNC(=O)/C(C#N)=C/c1cccc(NC(=O)c2ccccc2Cl)c1	?	17%	?	-7%	1.3%	-10%	-17%	-3%
CCC1C(=O)N=C(SCC(=O)Nc2ccc(S(N)(=O)=O)cc2)NC1=O (configuration not stated)	?	/	2%[46.1 µM]	4%	/	/	-3%	1%
CCOc1ccc(NC(=S)N(CCOC)C(C)c2cccnc2)cc1 (configuration not stated)	21%[46.1 µM]	/	-18%	2%	/	/	-16%	3%
COc1ccc2ccccc2c1C(=O)/C=C\c1ccoc1	1%	-26%	4%	-20%	?	-18%	0%	/
O=C(NCc1ccccc1)C(c1ccccc1F)N(C(=O)c1csnn1)C1CCCC1 (configuration not stated)	-21%[46.1 µM]	/	3%[46.1 µM]	-4%	/	5%	20%	-1%
Cc1ccc(C(=O)C2OC(=O)C(C)(C)C(=O)C2(C)C)cc1 (configuration not stated)	3%&3%	8%	2%	-7%	-1.7%	6%	-10%	2%
CCCN(CCC)CCNC(=O)C1CCN(c2nc3ccc(CC)cc3s2)CC1	?	26%	?	/	-1.2%	/	-2%	/
COC(=O)c1c(C)cc(C)n2c1nc1ccccc12	-8%	-2%	6%	-14%	-4.5%	-16%	-16%	0%
COc1ccccc1/C=C/C(=O)OCC(=O)Nc1nnc(-c2ccccc2)o1	4%	/	2%	2%	/	/	1%	2%
CC1=C(C(=O)OCCc2ccccc2)C(c2ccsc2)NC(=O)N1C (configuration not stated)	-19%	4%	?	0%	-13%	-23%	-20%	22%
CCOc1ccc(-c2ccc(NS(=O)(=O)c3ccc([N+](=O)[O-])cc3)cc2)nn1	/	/	/	0%	/	1%	0%	-2%
CCc1sc(Nc2cccc(C)c2C)nc1-c1cc2cccc(OC)c2oc1=O	/	5%	-1%[46.1 µM]	/	2.2%	/	-2%	/
O=C(Nc1ccccn1)C1CCN(S(=O)(=O)c2ccccc2)CC1	?	/	-4%	1%	/	/	13%	-2%
CCOC(=O)C1(CCOC)CCN(C(=O)c2ccc(CSC)o2)CC1	/	/	/	16%	/	-9%	5%	-2%
O=C(Nc1cccc(F)c1)N1CCN(C(=O)c2ccco2)CC1	/	/	/	-2%	/	11%	0%	-5%
O=C1C=C(NCC2CCCO2)C2(CCCCC2)O1 (configuration not stated)	11%	2%	-14%	-2%	3.4%	0%	-7%	5%
CCCCCCCCCCCNC(=O)c1ccoc1C	?	?	-16%	-16%	-15%	-12%	-16%	-61%
Cc1ccc(-c2ccnc3cc(C)nn23)cc1	/	/	/	-14%	/	-2%	26%	0%
CCOC(=O)c1[nH]c(C)c(C(=O)N(C)C)c1C	3%	2%	12%	0%	7.5%	8%	21%	10%
O=C(CCN1C(=O)/C(=C\c2ccccc2)SC1=S)NNC(=O)c1cccnc1	?	-2%	?	7%	-3.3%	1%	0%	17%
COc1ccc(NC(=O)Nc2c(C)n(C)n(-c3ccccc3)c2=O)cc1	/	0%	/	-7%	-0.5%	?	22%	0%
C=C(C)CSc1nc(N)c2c3c(sc2n1)CCC3	9%&9%	?	16%	-14%	-0.4%	-10%	11%	18%
N#Cc1c(NC(=O)CSC2=NCCS2)sc2c1CCCC2	6%	?	12%	-18%	-4.0%	-19%	-30%	-7%
COc1ccc(C(C(=O)NCC2CCCO2)N(C(=O)CNC(=O)c2ccco2)c2ccc(C)c(C)c2)cc1OC (configuration not stated)	1%[46.1 µM]	/	-4%	-7%	/	1%	10%	-2%
CCOc1ccc(CN2CCNC(=O)C2CC(=O)NCCCC2CCCC2)cc1 (configuration not stated)	10%	/	-20%	-4%	/	7%	6%	4%
CCN(CC)c1ncc(C)c(=O)[nH]1	-9%&-9%	28%	-3%	7%	1.8%	-1%	-20%	-1%
COC(=O)C1=C(N)n2c(s/c(=C\c3cccnc3)c2=O)=C(C(=O)OC)C1c1cccnc1 (configuration not stated)	-1%	?	/	/	2.2%	-13%	/	10%
Clc1ccc(-n2ncc3c(NCc4ccco4)ncnc32)cc1	-4%&-4%	19%	?	8%[3.69 µM]	-0.3%	9%	32%[activator]	4%
COc1ccc(C(=O)C[n+]2cc(-c3ccc(OC)cc3)n3c2CCCC3)cc1	?	/	-16%[46.1 µM]	97%&-15%	/	/	?	3%&3%
O=C(Nc1ccccc1F)c1ccc(Cn2nc(N3CCN(c4ccccc4)CC3)ccc2=O)o1	/	11%	?	/	-3.5%	/	-22%	/
Cc1cc(NC(=O)CS(=O)(=O)c2cn(Cc3ccc(F)cc3)c3ccccc23)no1	6%	-9%	/	-5%	0.2%	8%	?	-9%
O=C(CCn1c(=O)oc2ccccc21)N1CCC2(CC1)OCCO2	8%	3%	-1%	0%	5.4%	-3%	7%	5%
CCC1(c2ccccc2)NC(=O)N(CC(=O)Nc2ccccc2C(=O)NC2CC2)C1=O (configuration not stated)	-3%	/	-10%	-3%	/	/	2%	-27%
CCOc1ccc2nc(NC(=S)NCc3ccccc3)sc2c1	?	25µM*	?	-14%	-3.3%	2%	49%[activator]	24%
CCOC(=O)/C=C1\SCC(=O)N1CC(=O)Nc1cccc(F)c1	20%[46.1 µM]	/	?	12%	/	8%	8%	-1%
